MT1-MMP act inh: blockers of MT1-MMP proenzyme processing, primary screen, HT1080 RFP-PRO-GFP cells, GFP/RFP fluorescence; Matrix metalloproteinase-14 (Homo sapiens), P50281; GFP/RFP ratio fluorescence, overnight; percent of plate control window, DMSO zero; GFP/RFP ratio change, % at 20 µM; 0.061% of 360,000 active; AID 651647, 2012;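 active means GFP/RFP ratio change of at least 30% with cell ATP level not reduced by more than half and red fluorescence within 50% of control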; further: strong numbers were not always called active
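Assay system: HT1080 RFP-PRO-GFP cells. Benchmarks: DMSO vehicle wells and RFP-L50D-GFP reporter cell wells. Times: overnight cell settling, then overnight compound exposure, 37 °C, 5% CO2. Compound: 20 µM single dose, 1% DMSO. Read-out basis: GFP/RFP fluorescence ratio.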
HIV Env fusion: inhibitors of HIV-1 Env-driven cell-cell fusion, primary screen, HeLa-JRFL effector, CEM21 target cells, luciferase | 1.1% of 360,000 active | inhibition, % at 12.3 µM | AID 651610, 2012;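 active means mean replicate inhibition score of at least 50 and every replicate individually at or above 50; inconclusive means only one of the two criteria met; inactive means mean below 50 and not all replicates reaching 50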;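 further: 0% = plate neutral controls and 100% = maraviroc near 300 nM; one replicate is shown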
eIF4H FP inh: human eIF4H binding inhibitors, primary screen, translation initiation inhibitor project, biochemical, uHTS, fluorescence polarization | eIF4H fluorescence polarization binding assay | inhibition, % at 35 µM | 0.94% of 290,000 active;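 active means 50% or more with normal probe brightness, or confirmed in later tests; inconclusive means above 50% with abnormal brightness, or retests that disagree; inactive means below 50% or failed in later tests; about a fifth of its hits are not listed in these tables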;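 further: calls also rest on retests at 20 µM and on dose response follow-up; 0% = protein and probe with vehicle and 100% = probe without protein; strong numbers were not always called active; many hits fall short of the cut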
PABP polyA inh: PABP poly(A) RNA binding inhibitors, primary screen, biochemical, fluorescence polarization, uHTS; Polyadenylate-binding protein 1 (Homo sapiens), P11940; 1% of 290,000 active; AID 2014, 2009; inhibition, % at 35 µM;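 active means 50% or more with normal probe brightness, or confirmed in later tests; inconclusive means above 50% with abnormal brightness, or retests that disagree; inactive means below 50% or failed in later tests; about a fifth of its hits are not listed in these tables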;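 further: calls also rest on retests at 20 µM and on dose response follow-up; controls were probe without protein and protein plus probe with vehicle; some compounds called inactive have numbers as strong as hits; many hits fall short of the cut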
Target sequence (P11940 whole entry, looked up): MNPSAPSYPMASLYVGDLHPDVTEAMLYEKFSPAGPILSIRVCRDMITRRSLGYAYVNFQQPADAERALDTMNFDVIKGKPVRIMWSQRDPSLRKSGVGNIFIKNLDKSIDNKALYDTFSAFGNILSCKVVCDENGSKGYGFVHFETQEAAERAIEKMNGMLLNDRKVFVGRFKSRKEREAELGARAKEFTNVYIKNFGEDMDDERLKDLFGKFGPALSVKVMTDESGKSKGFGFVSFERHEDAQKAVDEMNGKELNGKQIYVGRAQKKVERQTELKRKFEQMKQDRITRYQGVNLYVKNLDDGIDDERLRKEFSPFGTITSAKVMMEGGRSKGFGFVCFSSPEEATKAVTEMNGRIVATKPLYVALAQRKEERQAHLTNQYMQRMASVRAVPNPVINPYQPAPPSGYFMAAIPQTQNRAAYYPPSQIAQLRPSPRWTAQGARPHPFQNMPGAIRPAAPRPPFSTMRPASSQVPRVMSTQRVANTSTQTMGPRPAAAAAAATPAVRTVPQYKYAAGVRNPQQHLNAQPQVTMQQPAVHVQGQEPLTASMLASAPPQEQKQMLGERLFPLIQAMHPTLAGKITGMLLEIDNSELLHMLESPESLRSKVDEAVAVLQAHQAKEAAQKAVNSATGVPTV
CSC inhib: cancer stem cell viability inhibitors, primary screen, luminescence; cancer stem cell-like cells viability; inhibition, % at 7.5 µM; 1.1% of 300,000 active; AID 2717, 2010;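 active means mean at 75% or more and at least half the replicates too; inconclusive means mean and replicates disagree; tested in HMLE shEcad cells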;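 further: 0% = median of negative and 100% = median of positive control wells; the first replicate is given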
UUG fidelity: modulators of yeast start codon fidelity, primary screen, whole organism, S. cerevisiae, single point, plate reader | S. cerevisiae UUG-firefly luciferase reporter, luminescence/redox ratio | activity score, % at 18.7 µM | 0.13% of 350,000 active;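 active means replicate mean at a twofold rise or more, about +100% in these data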;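 further: firefly luciferase made from a UUG start codon reports start codon fidelity; reporter light over untreated wells divided by growth signal over untreated wells; some hits fall short of that in this replicate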
Rce1 inh: yeast Rce1p protease inhibitors, primary screen, biochemical, fluorescence, cell-free homogeneous | AID 2563, 2010 | yeast membranes, quenched prenylated peptide cleavage fluorescence | 0.27% of 290,000 active | calls only;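 active means fall in fluorescence gain of 50% or more versus controls, with final raw signal at or below 3038400; inconclusive means same 50% fall but final raw signal above 3038400; inactive means fall in fluorescence gain under 50%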;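 further: plate controls were neutral control wells for no effect and wells lacking membranes for full effect; tested at 10 µM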
Target sequence (Q03530 whole entry, looked up): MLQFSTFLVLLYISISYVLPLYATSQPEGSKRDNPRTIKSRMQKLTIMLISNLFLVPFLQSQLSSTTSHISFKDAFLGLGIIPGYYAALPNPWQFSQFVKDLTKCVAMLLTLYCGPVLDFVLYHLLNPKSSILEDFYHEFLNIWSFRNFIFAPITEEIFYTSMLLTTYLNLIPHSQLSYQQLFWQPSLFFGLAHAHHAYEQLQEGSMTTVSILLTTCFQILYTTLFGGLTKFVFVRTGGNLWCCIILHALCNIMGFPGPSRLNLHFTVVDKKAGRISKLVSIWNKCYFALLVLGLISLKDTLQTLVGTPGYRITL
MT1-MMP act inh RFP: further read-out of MT1-MMP act inh, marked with its call; RFP signal change, %; measured here: RFP expression control read;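 0 = vehicle wells; hits needed this value within 50% of zero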
The depositor's hits bear a star; i = inactive; ? = inconclusive; . = not tested or not shown. Compounds as they come, and some 3% of all compounds hit somewhere here.

compound	UUG fidelity	Rce1 inh	CSC inhib	MT1-MMP act inh RFP	eIF4H FP inh	MT1-MMP act inh	HIV Env fusion	PABP polyA inh
Cc1noc(NS(=O)(=O)c2ccc(NS(=O)(=O)c3ccc(Cl)cc3)cc2)c1C	-21	.	-18	3	.	0	-1	.
O=C(c1ccccc1F)N1CCc2ccccc21	-6	i	4	3	2	-2	-57	-2
Cc1ccc(NC(=O)COc2ccc(-n3cnnn3)cc2)cc1C	-6	i	-4	0	10	12	.	-9
Cc1nnc(Nc2ccc(S(N)(=O)=O)cc2)c2ccccc12	-7	i	.	1	7	5	-12	11
COc1ccccc1/C=N/NC(=O)C(C)Cn1cnc2ccccc21 (stereo unspecified)	-9	i	-10	3	-10	-1	-4	18
C=CCn1c(=O)n(C)c2c(=O)n(C)c(=O)n(C)c21	-14	.	.	2	.	1	?	.
O=C(O)COCC(=O)NCc1nc(-c2ccc(C(F)(F)F)cc2)no1	-11	i	-11	0	3	1	-1	10
CCOC(=O)C1=C(COC(=O)Cc2ccccc2F)NC(=O)NC1C (stereo unspecified)	3	i	1	5	.	3	-23	.
O=C(Nc1ccnn1C1CCNCC1)c1ccc2c(c1)OCO2	-21	.	.	2	.	-4	-3	.
CC1=C(C(=O)OCc2ccccc2)C(c2ccc(C)o2)C2=C(CCCC2=O)N1 (stereo unspecified)	.	i	0	-10	0	-6	.	-2
O=C(NCCc1ccccc1)C1CCC(Cn2c(=O)c3ccccc3n(Cc3cccc(Cl)c3)c2=O)CC1 (stereo unspecified)	-10	i	0	0	.	-9	11	.
O=C(OCc1ccccc1)C1CCCN1C(=O)c1cccs1 (stereo unspecified)	1	i	-6	-1	2	2	.	0
CC1CCCC(NC(=O)c2ccc3c(c2)OCCO3)C1C (stereo unspecified)	-6	.	.	2	.	0	-49	.
CCN(CC)CCOC(=O)c1c(C)oc2ccc(O)cc12	-19	i	3	1	-10	0	.	8
CCNc1nc(NCC)n2c(SCC(=O)Nc3ccc(C)c(C)c3)nnc2n1	-25	i	6	3	.	4	-9	.
COc1cccc(N=C2SC(C(=O)Nc3ccccc3F)CC(=O)N2C)c1 (stereo unspecified)	-6	i	.	-2	-1	4	.	-7
CN(CCNC(=O)C1CC(=O)N(C2CCCC2)C1)Cc1ccccc1 (stereo unspecified)	-6	i	.	5	.	1	-12	.
C=CCOc1ccc(/C=C/C(=O)OCC(=O)NCCC2=CCCCC2)cc1	-7	i	-4	6	0	2	3	-8
Cc1nc2cc(NC(=O)NC3CC3)ccc2n1C	.	i	-11	-10	2	2	-21	11
CC(C)C(OC(=O)CN1C(=O)COc2ccccc21)C(=O)NC1CCCC1 (stereo unspecified)	-7	i	.	-1	-2	-3	5	7
CCCNC(=O)c1ccc(C)c(NC(=O)C2=C(C)OCCS2)c1	-9	i	5	2	-1	0	7	8
Cc1ccsc1/C=N/NC(=O)CNC(=O)c1ccc(S(=O)(=O)N(C)C)cc1	-6	i	-1	3	0	-4	16	-4
O=C(NCc1cccnc1)c1cc(C2CCCCN2C(=O)CCCc2ccccc2)on1 (stereo unspecified)	-12	.	.	-4	.	0	2	.
CCn1ccc(C(=O)Nc2ccc(Cl)cn2)n1	-14	i	-13	0	29	3	.	-5
CC(=O)Cn1c2ccccc2n2nc(CCC(=O)O)c(=O)nc12	-9	i	-1	3	0	0	1	0
O=C(COc1ccc(S(=O)(=O)N2CCOCC2)cc1)Nc1ccc(Cl)c(C(F)(F)F)c1	-2	i	61	-20	-7	-8	.	-2
CC1Cc2ccccc2N1C(=O)c1cnc2sccn2c1=O (stereo unspecified)	-17	i	-3	7	0	-2	3	17
CNC(=O)CSc1nnc(-c2ccco2)n1-c1cccc(OC)c1	-6	i	-5	5	0	0	0	-1
CC(=O)Nc1cccc(C(=O)NNC(=O)c2ccc(-n3cnnn3)cc2)c1	5	.	-7	0	.	0	5	.
O=C(Nc1ccccc1)c1ccc(-c2ccc(Br)cc2)o1	-12	i	?	0	-8	7	-72	-5
C=CCN(C(=O)c1oc2c(Cl)cc(C)cc2c1C)C1CCS(=O)(=O)C1 (stereo unspecified)	-20	i	-4	-2	-6	-1	-61	-8
CN1CCN(C2CC(=O)N(CCc3ccccc3)C2=O)CC1 (stereo unspecified)	-18	i	4	4	-6	-1	2	4
COc1ccc(OC)c(CN2CCN(C(=O)CN3C(=O)NC4(CCCC4)C3=O)CC2)c1	.	i	-10	5	.	11	-5	.
O=C(COC(=O)CCc1nc2ccccc2s1)Nc1ccc(Cl)cn1	-12	i	-9	4	-4	-4	-1	-4
Cc1cc(C)c(NC(=O)CSc2nc3ccncc3[nH]2)c(C)c1	-8	i	-4	-1	0	2	-6	10
Cc1cccc(C)c1OCc1cc(C(=O)N2CCC(c3ccncc3)CC2)no1	-21	i	-8	-27	-5	-1	-19	7
CCOCCCNC(=O)c1ccc(OC)c(OC2CCN(C(C)C)CC2)c1	-7	i	-2	5	8	0	11	19
OCC[C@H]1C[C@H](O)[C@@H](O)[C@]2(CCCc3ccccc3O2)O1	-15	.	-8	5	.	4	-9	.
Nc1c(N(CCO)C(=O)COc2ccc(Cl)cc2)c(=O)[nH]c(=O)n1Cc1ccccc1	.	i	-13	2	3	3	-14	6
Cc1cc(Br)ccc1NC(=O)CN1C(=O)C2CC=CCC2C1=O (stereo unspecified)	-33	.	5	1	.	-2	0	.
Cc1cccc(N2C(=O)C(O)=C(C(=O)c3cccs3)C2c2ccc(Cl)cc2)n1 (stereo unspecified)	.	i	6	0	7	-2	-1	-1
CC(=O)Nc1ccc(S(=O)(=O)NNC(=O)c2ccc3c(c2)OCO3)cc1	-4	i	11	3	-10	-2	-6	10
O=C(c1ccccn1)N1CCN(C(=O)c2ccccn2)CC1	-10	i	-9	-3	1	-6	-2	-4
COc1ccccc1CNC(=O)Cn1ccsc1=N	-15	i	-8	5	0	1	-15	-8
COc1cccc(/C=C2\Oc3ccc(O)cc3C2=O)c1O	-74	i	-3	7	-1	9	-175	8
CCOC(=O)C1(Cc2cccc(F)c2)CCN(C(=O)C2CCOCC2)CC1	2	i	2	2	2	1	8	-2
Cc1cccc(CC2CC(=O)N(CCc3ccc4c(c3)OCO4)C2=O)c1 (stereo unspecified)	.	i	9	7	-7	0	1	-19
O=C(Cn1cc2c(n1)CCCCC2)Nc1c(F)c(F)cc(F)c1F	-18	i	-5	-2	-8	0	0	2
CC1CC=CCC1(CO)CO (stereo unspecified)	0	.	.	1	.	1	15	.
Cc1cc(NC(=O)c2ccc(NC(=O)C(C)Oc3ccccc3)cc2)no1 (stereo unspecified)	-11	i	-2	-7	-11	2	-14	7
O=C(CSc1nc2nc[nH]c2c(=O)[nH]1)NC1CCCCC1	-15	i	-8	4	10	0	.	-5
Cc1nc(C(=O)Nc2cccc(Cl)c2)nn1-c1cc(OC(C)C)c(Cl)cc1Cl	8	i	16	-2	-6	3	-119	16
CN(CC(=O)Nc1ccccc1Cl)C1CCS(=O)(=O)C1 (stereo unspecified)	-12	.	.	0	.	-5	1	.
CN(C)[C@@H](CO)c1nnc([C@H](CC(=O)O)NC(=O)C2CCNCC2)o1	-24	i	3	7	-3	5	1	8
COc1ccc(C(c2nnnn2C2CCCC2)N2CCN(C(=O)c3ccco3)CC2)cc1OC (stereo unspecified)	8	i	-26	5	-13	1	13	2
COc1ccc(-c2noc(C3CCCN(C(=O)c4ccc(C)cc4)C3)n2)cc1 (stereo unspecified)	.	i	-12	-14	-3	-1	11	10

Later entries.
compound	UUG fidelity	Rce1 inh	CSC inhib	MT1-MMP act inh RFP	eIF4H FP inh	MT1-MMP act inh	HIV Env fusion	PABP polyA inh
Cc1ccc2nc(SCC(=O)Nc3ccc(C(N)=O)cc3)[nH]c2c1	.	i	-15	-3	2	3	-3	-2
Cc1cc(C)n(CCC(=O)N/N=C/c2c(O)ccc3ccccc23)n1	.	i	16	-7	15	-6	9	8
COc1ccc(C2Nc3ccccc3C(=O)N2c2ccc(C)cc2)cc1Cn1cc([N+](=O)[O-])cn1 (stereo unspecified)	-31	i	-2	-1	7	1	.	2
CC(=O)Nc1nc2c(c3c1c(=O)oc1ccccc13)CC(C)CC2 (stereo unspecified)	.	i	.	.	-2	.	.	8
CCOC(=O)c1c(NC(=S)Nc2ccccc2)sc2c1CCCCC2	.	i	33	-2	-7	1	.	0
Cc1ccc2[nH]c(O)c(N=NC(=O)c3ccc(NS(=O)(=O)c4cccs4)cc3)c2c1	.	i	7	2	18	2	-2	-1
O=C(C1CCC1)N1CCc2cc(S(=O)(=O)Nc3ccc4c(c3)OCCO4)ccc21	-17	i	-6	-26	-2	-3	?	-4
CN(C)CCCOC(=O)c1ccccc1Cl	-13	i	-4	-2	-10	-1	.	8
COCCCNC(=O)C[C@H]1C[C@H](C(=O)N(C(C)C)C(C)C)[C@@]2(C)c3[nH]c4ccc(Cl)cc4c3CCN2C1=O	-6	.	.	-7	.	-1	12	.
CN(Cc1ccccc1)C(=O)CN1C(=O)NC(C)(c2ccc(C(C)(C)C)cc2)C1=O (stereo unspecified)	3	i	-14	-2	0	4	31	-1
O=C(CSCc1ccccc1)N1CCN(c2ccc(F)cc2)CC1	5	i	1	1	8	4	.	-2
Cc1ccc(NC(=O)COc2ccc3c(c2)CCC3)nc1	-34	i	12	0	.	-1	-121	.
COc1ccccc1N1CCN(C(CNS(=O)(=O)c2ccccc2)c2ccccc2)CC1 (stereo unspecified)	-5	i	-9	-7	.	-6	6	.
CNC(=O)CN1C(=O)NC2(CCc3ccccc32)C1=O (stereo unspecified)	-28	i	.	4	3	1	-35	11
COc1cc(CO)ccc1OCC(=O)Nc1ccc(Br)cc1	.	i	-6	2	0	0	8	-7
CCCOP(=O)(c1ccc(N(C)C)cc1)C(O)c1c(Cl)cccc1Cl (stereo unspecified)	-10	i	-13	-1	4	-1	73*	-6
O=C(O)CCc1ccc(-c2ccc(Cl)cc2)n1NC(=O)c1ccc(O)cc1	3	i	-10	4	-4	4	8	-6
CC1CC(C)CN(c2cc(=O)n(Cc3ccc(F)cc3)c(=O)[nH]2)C1 (stereo unspecified)	-18	i	2	-23	-9	-23	31	7
O=C(N/N=C/c1ccc(OC(=O)c2ccccc2)cc1)c1cccc(O)c1	.	i	-5	-3	11	-3	-12	5
Cc1ccc2sc(N(CCCN(C)C)C(=O)c3ccc(S(=O)(=O)N(C)Cc4ccccc4)cc3)nc2c1C	-2	i	-7	1	.	-2	-18	.
CCCOc1ccc(C2NC(=O)CCC2[N+](=O)[O-])cc1 (stereo unspecified)	-13	i	-10	4	-4	2	4	3
COc1ccc(N2CCN(CC(=O)Nc3ccccc3SC)CC2)cc1	7	i	-9	-2	-6	5	22	-2

High-throughput results as filed in PubChem.
